Screens as filed in PubChem.
Sa helicase inh – blocks Staphylococcus aureus DNA helicase; purified S. aureus helicase, fluorescence unwinding assay; about half of the hits fall short of the stated cut; inhibition, %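 (tested at about 80 µM)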; 120,000 tested, 0.05% active;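 active means both duplicates at 50% or more, or one of them with a favoured structure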;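 further: 0% = mean of negative control wells and 100% = mean of positive control wells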
MgrA-DNA mod – modulators of Staphylococcus aureus MgrA DNA binding; fluorescence polarization; inhibition, %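 (about 10 µg/mL by stock and volumes)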; 84,000 tested, 0.13% active;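 active means above 50% in either of two replicates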;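 further: 0% = protein plus DNA without compound and 100% = DNA alone without protein; higher means less MgrA bound to DNA so lower polarization; one replicate is shown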
* marks the source's active call; other numbers are inactive results; . = no result given. A portion of the library; rates above refer to the full screens.

MgrA-DNA mod,Sa helicase inh,molecule
0.7,-11,O=C(NC1CCCC1)c1ccc2c(c1)C(=O)N(CC1CCCO1)C2=O (stereo unspecified)
.,-18,COc1nc(OC)nc(N2CCCc3cccc(C)c32)n1
.,4,C/C(=C\C(=O)Nc1ccc(Cl)cc1)NCc1ccco1
0.4,.,COc1cccc(N2C=CC(C)(C)NC2=S)c1
-2.7,9,CCC(=O)n1nc(-c2ccco2)nc1SCc1ccccc1
.,9,O=C(NCc1ccccc1CN1CCOCC1)c1n[nH]c(=O)c2ccccc12
.,-2,Cc1ccc(NC(=O)COc2nc3nncn3nc2C)cc1
1.5,13,CC1(C)C=C(/C=C/c2ccccc2F)NC(=S)N1
1.3,6,CCOC(=O)c1c(NC(C)=O)sc(Br)c1-c1ccc(C)cc1
.,-5,O=C(N/N=C1\CCc2ccccc21)c1ccc(O)cc1
.,-18,O=c1c(-c2cc3ccccc3o2)coc2cc(O)ccc12
-1.3,.,CC1=NN(c2ncnc3sc4c(c23)CCCC4)C(=O)C1

MgrA-DNA mod,Sa helicase inh,molecule
.,22,Cc1c(N)cc(C(F)(F)F)cc1C(F)(F)F
1.1,13,CC(C)CNC(=O)c1cccc(S(=O)(=O)N2CCCC2)c1
2.4,.,Cc1cc(C(F)(F)F)nc2c([N+](=O)[O-])c(C(C)(C)C)nn12
0.2,5,CN(C)c1ccnc(NCc2ccccc2)c1C#N
.,12,CCCCn1c(N)cc(=O)[nH]c1=O
.,10,O=c1cc(CSCc2ccccc2)nc2sccn12
1.7,.,O=C(Nc1cccs1)Nc1ccccc1N1CCCCC1
2.2,13,CC1(C)Cc2c(ccc3ccccc23)C(Sc2ccc(N)cc2)=N1
.,36,Cc1ccc(CC2CC(=O)N(c3ccccn3)C2=O)cc1 (stereo unspecified)
.,11,OCCCc1nc2ccccc2n1Cc1ccc(Cl)cc1
.,-5,CCCCSc1nc2ccccc2[nH]1
-0.8,1,Fc1cc(Br)ccc1N=Cc1ccccn1

MgrA-DNA mod,Sa helicase inh,molecule
-2.1,.,CCOC(=O)c1cnn(C(=O)c2snnc2C)c1N
-1.6,10,COc1ccc(CCNC(=O)C23CC4CC(CC(C4)C2)C3)cc1OC
1.6,.,CSC1=NCCN1S(=O)(=O)c1ccc(C)cc1
.,-10,O=C1OCCC1Sc1nc2ccccc2c(=O)n1Cc1ccco1 (stereo unspecified)
.,-52,Cc1nn(C)c2c(=O)c(=O)c2n(C)[nH]1
0.1,.,COC(=O)c1scc(C)c1-n1cccc1
1.5,1,Cc1cc(=O)oc2c(CNC(CC(C)C)C(=O)O)c(O)ccc12 (stereo unspecified)
3.2,-9,CCCOc1ccc(/C=C/C(=O)Nc2nccs2)cc1OC
.,13,CCCCN(C)C(=O)CN1C(=O)CC(C)(C)Sc2ccccc21
60*,8,CC(C)c1cc2cc(/C=C/C(=O)O)c(O)cc2o1
.,-41,CCOC(=O)C1=C(C)NC(SC)=NC1c1ccc(OC)cc1 (stereo unspecified)
.,-1,Cc1cccc(N2CC(C(=O)Nc3ccc(N4CCOCC4)cc3)CC2=O)c1C (stereo unspecified)

MgrA-DNA mod,Sa helicase inh,molecule
1.2,9,Cc1cc2nc(SCCN3CCCC3)[nH]c2cc1C
-2.1,9,COC(=O)Nc1ncc(CN2CCCCC2)s1
3.8,-1,Cc1ccc(C(=O)N(CC(C)C)CC(C)C)cc1C
.,-11,CCc1cc2c(NC(C)C(=O)O)ncnc2s1 (stereo unspecified)
.,-10,O=C(O)C1CCC(=O)N(C2CCCCC2)C1c1ccccc1Cl (stereo unspecified)
-3.7,.,O=[N+]([O-])c1cccc(-c2cc(C(F)(F)F)n3nc(-c4ccco4)cc3n2)c1
.,-6,COC(=O)c1cc(OCc2c(C)noc2C)cc(C(=O)OC)c1
.,-5,CS(=O)(=O)c1ccc(Cl)c(NC(=O)CN2CCCSc3ccccc32)c1
.,-2,CCc1ccc(C2CC(=O)Nc3n[nH]c(-c4ccccc4)c32)cc1 (stereo unspecified)
-1.1,.,CN(N)c1nc2ccccc2nc1C(F)(F)F
.,5,Cc1nn(-c2ccccc2)c2[nH]cc(C(=O)Nc3ccccc3)c(=O)c12
.,-2,COC(=O)CSC1=C(C#N)C(=O)NC2(CCCCC2)S1

MgrA-DNA mod,Sa helicase inh,molecule
.,-4,O=C(COc1ncnc2sc3c(c12)CCC3)NCCN1C(=O)CSC1=O
.,2,CC1Cc2ccccc2N1CC(=O)Nc1ccc(SC(F)F)cc1 (stereo unspecified)
.,-15,c1ccc2c(c1)nc(-c1ccncc1)n1nnnc21
.,-15,COc1ccccc1N(C)S(=O)(=O)c1ccc(Cl)cc1
-2.1,3,COc1ccc(-c2csc(C3COc4ccccc4O3)n2)c(OC)c1 (stereo unspecified)
-3.9,.,CCCC1C(=O)CC(c2ccco2)NC1c1ccco1 (stereo unspecified)
2.0,.,COc1cc(C(=O)NNS(=O)(=O)c2cc(C)c(Cl)c(C)c2)c(-n2c(C)ccc2C)cc1OC
-1.2,.,O=C(Nc1cccc2ccccc12)c1ccccc1
.,28,Cn1nnnc1SCC(=O)NN1C(=O)NC(C)(c2ccccc2)C1=O (stereo unspecified)
.,-4,O=C(Nc1ccc(Cl)cc1)Nc1csc(N2CCCCC2)n1
.,-22,COCCOC(=O)c1c(C)oc2ccc(OCc3cc(C(=O)OC)oc3C)cc12
-2.0,7,COC(=O)c1cc2c(ccn2-c2ccc(F)cc2)n1CC(=O)N1CCCCC1

MgrA-DNA mod,Sa helicase inh,molecule
-3.9,-12,Cc1ccc(N2C(=O)C(F)(F)C2c2ccccc2)cc1 (stereo unspecified)
.,1,CCc1cc2c(=O)c(-c3nc4ccccc4n3C)c(C)oc2c(CN2CCCCC2)c1O
3.1,.,CC(=O)N[C@@H](CS)C(=O)O
0.6,11,CCOC(=O)c1c(-c2ccccc2)oc2ccc(O)cc12
.,6,NS(=O)(=O)c1ccc(Cl)nc1
1.4,4,Cn1c2nc3ccccc3nc2c2c(=O)n(C3CCCC3)cnc21
-2.0,.,O=C(NC1(C(=O)O)CC1)OCC1c2ccccc2-c2ccccc21
.,9,Cc1occc1-c1n[nH]c(=S)o1
.,19,CC1CC(C)CN(C(=O)COC(=O)CCc2ccc(S(=O)(=O)N3CCOCC3)cc2)C1 (stereo unspecified)
.,-2,O=C(CSCCOc1ccccc1F)Nc1ccnn1C1CCCC1
.,0,COc1ccc(C2CC(c3ccccc3)=NN2C(=O)Cn2cnc3c2c(=O)n(C)c(=O)n3C)cc1 (stereo unspecified)
-2.5,-14,O=C(Cc1ccccc1O)c1ccccc1

18 entries from above, in markdown:
| canonical_smiles | MgrA-DNA mod | Sa helicase inh |
| --- | --- | --- |
| COc1cc(C(=O)NNS(=O)(=O)c2cc(C)c(Cl)c(C)c2)c(-n2c(C)ccc2C)cc1OC | 2.0 | . |
| O=C(Nc1cccc2ccccc12)c1ccccc1 | -1.2 | . |
| Cn1nnnc1SCC(=O)NN1C(=O)NC(C)(c2ccccc2)C1=O (stereo unspecified) | . | 28 |
| O=C(Nc1ccc(Cl)cc1)Nc1csc(N2CCCCC2)n1 | . | -4 |
| COCCOC(=O)c1c(C)oc2ccc(OCc3cc(C(=O)OC)oc3C)cc12 | . | -22 |
| COC(=O)c1cc2c(ccn2-c2ccc(F)cc2)n1CC(=O)N1CCCCC1 | -2.0 | 7 |
| Cc1ccc(N2C(=O)C(F)(F)C2c2ccccc2)cc1 (stereo unspecified) | -3.9 | -12 |
| CCc1cc2c(=O)c(-c3nc4ccccc4n3C)c(C)oc2c(CN2CCCCC2)c1O | . | 1 |
| CC(=O)N[C@@H](CS)C(=O)O | 3.1 | . |
| CCOC(=O)c1c(-c2ccccc2)oc2ccc(O)cc12 | 0.6 | 11 |
| NS(=O)(=O)c1ccc(Cl)nc1 | . | 6 |
| Cn1c2nc3ccccc3nc2c2c(=O)n(C3CCCC3)cnc21 | 1.4 | 4 |
| O=C(NC1(C(=O)O)CC1)OCC1c2ccccc2-c2ccccc21 | -2.0 | . |
| Cc1occc1-c1n[nH]c(=S)o1 | . | 9 |
| CC1CC(C)CN(C(=O)COC(=O)CCc2ccc(S(=O)(=O)N3CCOCC3)cc2)C1 (stereo unspecified) | . | 19 |
| O=C(CSCCOc1ccccc1F)Nc1ccnn1C1CCCC1 | . | -2 |
| COc1ccc(C2CC(c3ccccc3)=NN2C(=O)Cn2cnc3c2c(=O)n(C)c(=O)n3C)cc1 (stereo unspecified) | . | 0 |
| O=C(Cc1ccccc1O)c1ccccc1 | -2.5 | -14 |

(listing goes on)
MgrA-DNA mod,Sa helicase inh,molecule
-2.1,.,Cn1nc(C(C)(C)C)cc1C(=O)Oc1ccc(Cl)cc1
.,11,COc1cc2c(cc1OC)C(C)N(C(=O)NC1CC(=O)N(c3ccc4c(c3)OCCO4)C1)CC2 (stereo unspecified)
-1.1,11,O=C(CSc1ccccc1O)N1CCOCC1
-1.8,.,O=C(CC1SC(=Nc2ccccc2)N(c2ccccc2)C1=O)Nc1ccc([N+](=O)[O-])cc1 (stereo unspecified)
.,2,CC(C)OC(=O)NCCN1C(=O)C2C3C=CC(C3)C2C1=O (stereo unspecified)
.,-5,CC(C)(C)C(=O)CSc1nnc2n(-c3ccccc3)c(=O)c3ccccc3n12
.,-5,CN(C)c1ccc(C(CNS(C)(=O)=O)N2CCCC2)cc1 (stereo unspecified)
-0.8,.,CCOc1ccc(/C=C(\C#N)c2nc(-c3cc4c(ccc5ccccc54)oc3=O)cs2)cc1
0.5,24,COc1ccc(-c2n[nH]c(=S)n2/N=C/c2ccccc2Br)cc1OC
.,14,CCc1cc(CC)c(/C=N/O)c(CC)c1/C=N/O
-1.6,6,COc1ccc2oc(/C=C/N(C)C)c(C(=O)c3ccc(Br)cc3)c2c1
.,13,O=C(NCc1ccccc1)c1ccc(COc2ccccc2Br)o1

MgrA-DNA mod,Sa helicase inh,molecule
-0.8,1,O=c1/c(=C/C=C/c2ccccc2)sc2nc3ccccc3n12
.,2,Cc1nn(C2CCS(=O)(=O)C2)c(Cl)c1/C=C1\C(=O)N(C)C(=S)N1C (stereo unspecified)
2.9,.,O=C(Nc1ccccc1C(=O)Nc1ccc(Br)cc1)c1ccccc1
.,-8,COc1cc(C(=O)N2CCN(CC(=O)Nc3ccc(Cl)c(C(F)(F)F)c3)CC2)cc(OC)c1OC
.,4,COc1ccc(OCCSc2cccc[n+]2[O-])cc1
-0.5,.,COc1cc(C(=O)Nn2c(-c3cccc(Cl)c3)nc3ccccc3c2=O)cc(OC)c1OC
-1.5,.,FC(F)(F)Oc1ccc(N=Cc2c(Cl)nc3sccn23)cc1
.,8,CC1CCCC(C)N1C(=O)Cn1cnc(NC(=O)c2cc(-c3ccc(F)cc3)no2)n1 (stereo unspecified)
.,-12,Nc1nc(CN2CCOCC2)nc2ccccc12
.,-8,Cc1cc(C)c2cc(C(=O)Nc3ccc4c(c3)OCO4)[nH]c2c1
.,11,CCCNC(=O)c1cc2sc(Cl)cc2n1C
.,-23,CN(C)C(CC(=O)Nc1ccc(O)cc1)C(=O)O (stereo unspecified)

MgrA-DNA mod,Sa helicase inh,molecule
-0.8,.,O=c1[nH]c(=S)n(-c2ccc(Br)cc2)c2ncccc12
-0.8,5,CCCC(=O)Nc1nnc(CCC)s1
1.0,-3,CCN(CC)c1n[nH]nc1-c1cccc(Cl)c1
1.0,3,NC(=O)c1cc(-c2cccnc2)no1
2.5,10,CCOC(=O)C1=C(N)Oc2n[nH]c(C)c2C1c1cccs1 (stereo unspecified)
.,17,O=C(N/N=C/c1ccc(O)c(O)c1O)c1ccccc1-n1cccc1
-6.2,8,COc1ccc(C2C(C#N)C(C#N)N3CCCN23)cc1 (stereo unspecified)
0.3,.,COc1ccc(N2C(=O)CSC2c2cc(Br)ccc2OC)cc1 (stereo unspecified)
1.3,11,CCN1C(=S)NC2c3cc(C)ccc3OC13CCCC23 (stereo unspecified)
0.3,7,OC1CCCCC1Sc1nc2ccccc2s1 (stereo unspecified)
-1.7,.,O=C1CSCC(=O)N1c1ccc(-n2nc(C(F)(F)F)cc2C(F)(F)F)cc1
2.2,.,COc1ccccc1OC(=O)NC(C)C

MgrA-DNA mod,Sa helicase inh,molecule
.,0,COC(=O)C1CN(C(=O)c2ccc(C)cc2)c2ccccc2O1 (stereo unspecified)
.,-3,CCCN(C(=O)c1ccc(S(=O)(=O)N2CCCC2)cc1)C1CCS(=O)(=O)C1 (stereo unspecified)
.,-2,CC1CCc2nn(CC(=O)NC3CCCCCC3)cc2C1 (stereo unspecified)
1.1,.,N#CC(c1cccs1)c1ncc(C(F)(F)F)cc1Cl (stereo unspecified)
1.4,.,COc1ccc(C2Nc3ccccc3C(=O)N2Cc2ccco2)cc1COc1ccccc1F (stereo unspecified)
1.0,-3,Cc1cc(C)n(-c2nc3ccccc3nc2N2CCCC2)n1
.,21,O=C(NCCOc1nc(N2CCOCC2)nc(N2CCOCC2)n1)Nc1ccccc1
.,-6,Cc1cc(C(=O)OCC(=O)Nc2ccccc2C(=O)NC(C)c2ccccc2)no1 (stereo unspecified)
.,-11,CCN(CC)S(=O)(=O)c1ccc(-c2ccc(/C=N/NC(=O)CNc3ccc(OC)cc3)o2)cc1
0.3,6,CCOc1ccc(N2C(=O)C3C(C2=O)N2CCCN2C3c2ccc(F)cc2)cc1 (stereo unspecified)
-0.1,3,O=C(/C=C/c1ccco1)N(Cc1ccccc1)c1ccccn1
.,8,Cc1ccc(-n2c(SCCn3ccnc3)nnc2-c2ccc(Cl)cc2)cc1

MgrA-DNA mod,Sa helicase inh,molecule
-0.8,.,O=c1c2cnn(-c3ccccc3)c2ncn1/N=C/c1ccc(Cl)cc1
-1.2,.,COC(=O)c1sc2ccccc2c1OS(=O)(=O)c1ccc(Cl)cc1
-1.6,-3,COc1ccc2c3c([nH]c2c1)C(C)(C(=O)O)NCC3 (stereo unspecified)
-2.3,.,Cc1cc(C)c(C#N)c(OCC(=O)Nc2ccc(Oc3ccccc3)cc2)n1
1.6,.,Clc1ccccc1-c1nc2nnnn2c2ccc(Br)cc12
-2.1,-3,Cn1cccc1/C=C1\CCc2ccccc2C1=O
.,3,COc1ccc(/C=c2/sc3nc4ccccc4n3c2=O)cc1
